# CAL PDZ FP-1 – CAL PDZ (human) peptide binding inhibition. AID 602252. purified CAL PDZ, TMR-peptide fluorescence polarization, 1 h. inhibition, % at 24.9 µM. 300,000 compounds, 0.92% hits. Q9HD26;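 active means mean inhibition of at least 30% with at least half of replicates also reaching 30%; inconclusive means no clear call, values can overlap the other calls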;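 further: 0% = DMSO neutral control and 100% = excess unlabeled competitor peptide PRC23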
# Wnt act – Wnt/beta-catenin pathway activation | Wnt/beta-catenin reporter cell assay, activator, plate reader | activation, % at 9.35 µM | 300,000 compounds, 1.2% hits | AID 743398; in the data active means activation above about 30%, passing the limit was not always enough; inconclusive means no clear call, values can overlap the other calls;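 further: 0% = neutral control wells and 100% = positive control wells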
# dFosB activator – activators of mouse delta FosB homodimer; AID 493131; purified delta FosB, TAMRA-CDK5 oligo fluorescence polarization; percent of positive-control signal above neutral wells; 340,000 compounds, 0.99% hits; activation, % at 25 µM;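 active means mean activation above about 17%, with every replicate also reaching it, limit read from the data, passing the limit was not always enough; inconclusive means only one of the two conditions met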;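 further: fluorescence polarization rise as delta FosB binds a TAMRA Cdk5 AP-1 oligo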
# Target sequence (P13346 whole entry, looked up): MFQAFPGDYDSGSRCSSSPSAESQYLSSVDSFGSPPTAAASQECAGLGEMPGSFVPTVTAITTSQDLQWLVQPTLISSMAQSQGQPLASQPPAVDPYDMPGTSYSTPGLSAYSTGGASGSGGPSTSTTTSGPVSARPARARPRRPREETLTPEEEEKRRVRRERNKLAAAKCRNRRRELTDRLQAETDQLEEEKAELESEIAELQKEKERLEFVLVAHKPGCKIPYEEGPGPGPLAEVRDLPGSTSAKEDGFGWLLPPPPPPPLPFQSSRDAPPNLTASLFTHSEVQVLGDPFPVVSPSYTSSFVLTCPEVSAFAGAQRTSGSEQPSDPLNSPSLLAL
# CAL PDZ FP-2 – blocks peptide binding to human CAL PDZ domain | Q9HD26 | purified CAL PDZ, TMR-peptide fluorescence polarization, 1 h | inhibition, % at 20 µM | 330,000 compounds, 0.02% hits | AID 504414;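 active means highest replicate inhibition of at least 40%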;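 further: plate controls were DMSO neutral control wells for no effect and unlabeled competitor peptide control wells for full effect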
#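 System: tagged CAL PDZ domain. Schedule: 1 h room-temperature incubation prior to read. Signal: fluorescence polarization (mP). Measure: percent inhibition from loss of millipolarization.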
# RTF Ca sens act – cardiac RTF calcium sensitization. IANBD-labeled TnC RTF fluorescence at EC20 calcium; 0% EC20 calcium, 100% full calcium. activation, % at 7.2 µM. 340,000 compounds, 0.24% hits;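 active means activation above the mean over all tested compounds plus 3 SD, cut at about 30% in these data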;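 further: rise in fluorescence read as greater calcium sensitivity of cardiac thin filaments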
# An asterisk follows results filed as active; i = inactive; ? = inconclusive; nt = not tested or not shown; & = joins results of further samples. Some of the compounds tested; rates above refer to the full screens.
# Screens by letter: A = CAL PDZ FP-1; B = Wnt act; C = dFosB activator; D = CAL PDZ FP-2; E = RTF Ca sens act
Nc1nc(Cl)c(N)c(NCC2(CO)CC(CCc3ccccc3)C2)n1 (stereo not drawn)
  A = 1; B = -8; C = -12; D = -0.7; E = -7
C[N+]1(C)CCC(OC(=O)C(O)(c2ccccc2)C2CCCC2)C1 (stereo not drawn)
  A = 0; B = 12; C = -2; D = 0.7; E = 2
CC(C)c1nc(SCC(=O)Nc2ccc(N3CCOCC3)cc2)c2ccccc2n1
  A = -4; B = -1; C = -5; D = -3.0; E = 8
O=c1ccc2cc3c4c(c2o1)CCCN4CCC3
  A = 5; B = 2; C = -8; D = -0.5; E = 129*
NC(=NCCCCCCN=C(N)/N=C(\N)Nc1ccc(Cl)cc1)/N=C(\N)Nc1ccc(Cl)cc1
  A = -10&9&-4; B = -17&-17&-4; C = 6&-38&13; D = -5.3&-6.1&-1.6; E = -2&4&7
C/C(=N\NC(=O)c1nnn(-c2nonc2N)c1-c1ccccc1)c1ccco1
  A = 0; B = 12; C = -6; D = -1.6; E = 1
CN1CCN(C(=O)c2ccc(NS(=O)(=O)c3ccccc3)cc2)CC1
  A = 1; B = nt; C = -6; D = 0.7; E = -4
C=C1C(=O)C23C(O)C1CCC2C12CCCC(C)(COC(C)=O)C1C(O)C3(O)OC2 (stereo not drawn)
  A = 0; B = -6; C = 2; D = -0.9; E = 0
Cc1cc(C)c(/C=C2\C(=O)Nc3ccccc32)[nH]1
  A = -3; B = 11; C = -3; D = 1.3; E = 149*
NC(=O)C1CCN(C(=O)Nc2ccccc2)CC1
  A = -4; B = nt; C = -3; D = 0.6; E = -5
C(=N\Nc1nc2ccccc2[nH]1)/c1c[nH]c2ccccc12
  A = 6; B = nt; C = ?; D = 2.3; E = 0
CC(C)(C)n1nc(Cc2cccc3ccccc23)c2c(N)ncnc21
  A = -2; B = -7; C = 2; D = 0.1; E = -1
CCN(CC)CC(=O)Nc1c(C)cccc1C
  A = -2&-7&4; B = 0&-3&5; C = 7&0&3; D = -0.2&-0.8&-0.1; E = i
CN(C)c1ccc(/C=C/C(=O)c2ccc(O)cc2)cc1
  A = 2; B = 22; C = -7; D = -0.4; E = 72*

# One compound at a time, from the list above:
# Shown for `Nc1nc(Cl)c(N)c(NCC2(CO)CC(CCc3ccccc3)C2)n1` (stereo not drawn) → CAL PDZ FP-1: 1; Wnt act: -8; dFosB activator: -12; CAL PDZ FP-2: -0.7; RTF Ca sens act: -7
# Shown for `O=c1ccc2cc3c4c(c2o1)CCCN4CCC3` → CAL PDZ FP-1: 5; Wnt act: 2; dFosB activator: -8; CAL PDZ FP-2: -0.5; RTF Ca sens act: 129*

# Sorted by value in CAL PDZ FP-2 (rising): some entries from above
SMILES | CAL PDZ FP-1 | Wnt act | dFosB activator | CAL PDZ FP-2
Nc1nc(Cl)c(N)c(NCC2(CO)CC(CCc3ccccc3)C2)n1 (stereo not drawn) | 1 | -8 | -12 | -0.7
CN(C)c1ccc(/C=C/C(=O)c2ccc(O)cc2)cc1 | 2 | 22 | -7 | -0.4
CN1CCN(C(=O)c2ccc(NS(=O)(=O)c3ccccc3)cc2)CC1 | 1 | nt | -6 | 0.7
C(=N\Nc1nc2ccccc2[nH]1)/c1c[nH]c2ccccc12 | 6 | nt | ? | 2.3

# Screening data (PubChem)
